Vaccinia mCherry: qHTS for Stage-Specific Inhibitors of Vaccinia Orthopoxvirus: mCherry Reporter Primary qHTS; Potency, µM (highest dose often 36.5 µM), for the others: at the top dose activity change, negative = inhibition, actives largely listed as inhibitors; Vaccinia virus mCherry reporter infection, fluorescence; about a quarter of the inactives have no number; 310,000 compounds, 0.63% hits; active = well fitted inhibition curve with a large enough effect; inconclusive = small, poorly fitted or top-dose-only effect; inactive = no such curve, though single readings can be large or run the other way; tested in A549 cells; further: nearly all actives have a fitted effect of over 35% in size; inactives centre near -10
VACV Venus inh: qHTS for Stage-Specific Inhibitors of Vaccinia Orthopoxvirus: Venus Reporter Primary qHTS; AID 720580, 2013; 330,000 compounds, 0.46% hits; Vaccinia virus Venus reporter expression, fluorescence; Potency, µM (series often up to 36.5 µM), for inactives: at the top dose activity change, negative = inhibition, actives largely listed as inhibitors; active means well fitted inhibition curve with a large enough effect; inconclusive means small, poorly fitted or top-dose-only effect; inactive means no such curve, though single readings can be large or run the other way; tested in A549 cells; further: nearly all actives have a fitted effect of over 30% in size; inactives centre near -10
* marks the source's active call; other numbers are inactive results; i = inactive; ? = inconclusive; · = not tested or not shown; [ ] = remark or other dose. On the % scale 0 is the no-effect control and ±100 the full control effect; potency means the concentration at half of the fitted maximal effect. The order is random; any-hit rate near 0.86%.

no.	SMILES	Vaccinia mCherry	VACV Venus inh
1	C=CCn1c(O)c(C2=c3ccccc3=NC2=O)sc1=Nc1ccc(O)cc1	?	?
2	COc1ccc(CCNC(=O)c2cc(S(=O)(=O)N3CCOCC3)ccc2F)cc1	-20.4%	-3.3%
3	Cc1occc1-c1nnc(SCC(=O)Nc2ccc(F)cc2)n1Cc1ccccc1	-24.3%	-17.9%
4	O=C(NCc1ccccc1Cl)C1CCN(C(=O)c2ccco2)CC1	-0.4%	3.0%
5	O=C(Cn1c(=O)n(-c2ccc(Cl)cc2)c(=O)c2sc3ccccc3c21)NC1CCCCC1	8.7%	-2.1%
6	COc1ccc(CSc2nnc(N)s2)cc1F	·	-10.5%
7	Cc1nn(Cc2ccccc2)c(N)c1-c1ccccc1	·	-15.7%
8	COc1ccc(C(=O)NC2CC3CCCC(C2)N3Cc2ccccc2)cc1 (stereo not drawn)	i	-2.5%
9	Cc1[nH]c2ccccc2c1C(=O)COC(=O)C1CCC1	i	-3.7%
10	COc1ccc(S(=O)(=O)Nc2cccc3c2O[C@H](CN(C)C(=O)Nc2c(C)noc2C)[C@@H](C)CN([C@H](C)CO)C3=O)cc1	i	4.5%
11	Cc1ccc(C(=O)OCC(=O)N2CCCc3ccccc32)cc1C	-14.7%	-11.9%
12	NC(=O)c1ccc(Cl)c2ccccc12	-3.9%	-12.6%

Other results follow.
no.	SMILES	Vaccinia mCherry	VACV Venus inh
13	Cc1cccnc1NC(=O)CNC(=O)COc1ccccc1	i	-1.0%
14	CC1Oc2ccccc2N(CC(=O)NCCN2CCOCC2)C1=O (stereo not drawn)	-0.9%	-18.0%
15	CC(C)(O)CC[C@@H](O)[C@](C)(O)C1CC[C@@]2(O)C3=CC(=O)[C@]4(O)C[C@@H](O)[C@@H](O)C[C@]4(C)C3CC[C@]12C (stereo partly drawn)	-10.4%	-8.8%
16	Cc1nn(-c2c(Cl)cc(Cl)cc2Cl)c(=O)c2ccccc12	·	?
17	CC(=O)Nc1ccc(-n2cc(-c3ccccc3)[nH]c2=S)cc1	i	-0.3%
18	O=c1cc(CN(Cc2ccccc2)Cc2ccccc2)c2c(ccc3ccccc32)o1	13.1%	-4.8%
19	Cc1ccc(C)c(-c2cc(C(=O)Nc3cccc(C(=O)O)c3)c3ccccc3n2)c1	-3.9%	-6.6%
20	C=C[C@H](Cc1ccccc1)N(Cc1ccccc1)S(=O)(=O)N(Cc1ccccc1)[C@H](C=C)Cc1ccccc1	?	-11.2%
21	COC(=O)c1c(-c2ccc(Cl)cc2)noc1N1CCN(c2cccc(C)c2C)CC1	-10.9%	-9.2%
22	Cc1ccc(C)c(N(CC(=O)NC2CCCC2)C(=O)CCCC(=O)Nc2ccccn2)c1	·	-19.6%
23	COc1cccc(C2=NOC(C(=O)Nc3cc(C)on3)C2)c1 (stereo not drawn)	-12.1%	-13.9%
24	CC(=O)c1ccccn1	13.8%	-7.3%

Complete entries from above.
Profile of O=C(NCc1ccccc1Cl)C1CCN(C(=O)c2ccco2)CC1 → Vaccinia mCherry = -0.4%; VACV Venus inh = 3.0%
Profile of NC(=O)c1ccc(Cl)c2ccccc12 → Vaccinia mCherry = -3.9%; VACV Venus inh = -12.6%

Additional entries
no.	SMILES	Vaccinia mCherry	VACV Venus inh
25	CCOC(=O)c1c(NC(=O)/C=C/c2ccc3c(c2)OCO3)sc(C)c1CC	·	-3.6%
26	O=C(Cc1sc(-c2ccccc2)nc1-c1ccccc1)Nc1ccccc1	-12.1%	-21.9%
27	CCOC(=O)c1cnc2cc(-c3ccc(C)cc3)nn2c1C	-1.2%	-12.2%
28	COc1ccc(-c2ccc3nnc(SCC(=O)N4CCCC4)n3n2)cc1	?	-26.3%
29	CC(=O)OC1C(O)C(C)OC(OC2C(OC(=O)C3CCC4C(C3)OC3(CC(OC(=O)/C=C/c5ccccc5)C(C)CO3)C43CO3)OC(C)C(O)C2OC(C)=O)C1O (stereo not drawn)	?	0.316µM*
30	Cc1cc(C)cc(OCCSc2nc(-c3cccs3)nc3cc(=O)[nH]n23)c1	-7.9%	-6.9%
31	CCOc1cc(CN2CCN(S(=O)(=O)Cc3ccccc3)CC2)ccc1OC	-4.4%	3.3%
32	Cc1onc(-c2ccccc2)c1CNC(=O)Nc1ccccc1	i	-6.3%
33	Nc1ccc(-c2ncc(-c3ccccc3)o2)cc1	?	-8.7%
34	C=CCO/N=C(/CCC)C1=C(N)CC(C)(C)CC1=O	-21.3%	-7.9%
35	COC(=O)[C@]1(Cc2ccccc2)N[C@H](CN(C)S(=O)(=O)c2ccc(OC(F)(F)F)cc2)[C@@H]2C(=O)N(Cc3ccccc3)C(=O)[C@@H]21	?	-23.3%
36	COc1ccc(Cn2nnc3c(=O)[nH]c(C4CCCN(C(=O)c5ccccc5Cl)C4)nc32)cc1OC (stereo not drawn)	-4.2%	7.1%

Additional compounds follow.
no.	SMILES	Vaccinia mCherry	VACV Venus inh
37	CSc1ccccc1C(=O)OCC(=O)Nc1cccnc1Cl	i	-5.6%
38	CCCNC(=O)CC(NS(=O)(=O)c1ccc(OC)cc1)c1ccco1 (stereo not drawn)	-7.8%	-2.8%
39	CC(=O)c1ccccc1C(=O)N1CCC(CCC(=O)NCc2ccc(F)cc2)CC1	-0.3%	3.8%
40	COc1cc(C=NNc2ccccc2)ccc1OC(=O)c1ccccc1	i	-7.5%
41	COc1ccc(C2C(C(=O)NCCCN3CCOCC3)c3ccccc3C(=O)N2c2ccc(OC)cc2)cc1 (stereo not drawn)	-5.6%	-24.7%
42	CC(=O)Nc1ccc(-c2cn3c(n2)SCC3)cc1	-13.7%	-4.2%
43	O=C(COc1ccc2ccccc2c1)N1CCN(C(=O)c2cccs2)CC1	·	-13.4%
44	Cc1ccc(NS(=O)(=O)c2cc(C(=O)N3CCN(C)CC3)ccc2C)cc1C	i	-12.2%
45	COc1ccc(-n2nc(C(=O)N3CCN(Cc4ccc5c(c4)OCO5)CC3)c3ccccc3c2=O)cc1	·	-3.5%
46	S=C(NCCc1c[nH]c2ccccc12)NC1CCCCC1	-17.8%	-9.9%
47	O=C(NNc1ncnc2c1cnn2-c1ccccc1)c1ccco1	-3.6%	11.2%
48	Cc1nn(-c2ccccc2)c(Cl)c1/C=N\NC(=O)c1cnccn1	i	-3.6%

Next results follow.
no.	SMILES	Vaccinia mCherry	VACV Venus inh
49	COCCNC(=O)C1CCCN(C(=O)c2cncc(Br)c2)CC1 (stereo not drawn)	3.3%	-8.5%
50	CCc1nn2c(=O)cc(COc3ccc(/C=C(\C#N)C(=O)Nc4ccc(C)cc4)cc3)nc2s1	-5.4%	-3.6%
51	Cc1ccc(-n2ncc3c(N4CCC(Cc5ccccc5)CC4)ncnc32)cc1	-7.8%	0.1%
52	Cc1nc(N)[nH]c(=O)c1Oc1cccc(C(F)(F)F)c1	-2.9%[7.34 µM]	-18.3%[7.34 µM]
53	CCN(CC)S(=O)(=O)c1ccc2c(c1)C(=NO)c1cc(S(=O)(=O)N(CC)CC)ccc1-2	11.2µM*	12.6µM*
54	CC(C)(C)C1N=C(c2ccc3ccccc3c2)OC1=O (stereo not drawn)	i	-19.9%
55	O=C(NC1(Cc2ccccc2)CCN(CCc2cccs2)C1=O)c1ccccc1 (stereo not drawn)	-1.7%	-13.1%
56	COc1ccc(NS(=O)(=O)c2cccs2)cc1S(=O)(=O)N1CCOCC1	-18.6%	-4.8%
57	O=S(=O)(Nc1ccc(F)cc1F)c1ccc(Br)s1	1.4%	-8.7%
58	Cn1cccc1CN1CCC[C@]2(N[C@H](c3ccc(C(F)(F)F)cc3)[C@@H]3C(=O)N(Cc4ccccc4)C(=O)[C@@H]32)C1=O	-14.1%	-21.6%
59	COC(CN(C)S(=O)(=O)c1cc2c3c(c1)CCN3C(=O)CC2)OC	i	-26.2%
60	Cc1ccc(NC(=O)CCCN2C(=O)C(c3ccccc3)Oc3cccnc32)c(C)c1 (stereo not drawn)	-12.1%	-25.0%

(next part)
no.	SMILES	Vaccinia mCherry	VACV Venus inh
61	CC(C)c1ccccc1NC(=O)CCCC(=O)O	·	-17.3%
62	Cc1cccc(C)c1-n1c(SCC(=O)N2CC(=O)Nc3ccccc32)nc2ccccc2c1=O	-2.5%	-23.3%
63	CCOC(=O)COc1c(Cl)cc(/C=C2\N=C(C)OC2=O)cc1OC	-10.3%	-11.3%
64	OCC[C@@H]1C[C@@H](O)[C@H](O)[C@@]2(Cc3ccccc3O2)O1	i	-12.7%
65	N=C1S/C(=C\c2ccc(-c3cccc(Cl)c3)o2)C(=O)N1c1nccs1	-1.5%	-8.9%
66	O=C(NCCSCc1c(F)cccc1Cl)c1ccco1	-14.1%	-5.7%
67	O=[N+]([O-])c1ccc(Cc2nnc(-c3ccccc3Cl)o2)cc1	-16.6%	8.5%
68	COc1ccc(NC(=O)CSC2=Nc3ccccc3N=C(c3ccc(F)cc3)C2)cc1OC	-15.5%	-9.0%
69	C[C@@H]1CC2=C(C(=O)OC(C)(C)O2)[C@H](c2ccc(Cl)cc2)O1	i	6.2%
70	Cc1noc(C)c1CSc1ccccc1C(=O)Nc1nccs1	-16.9%	-7.0%
71	CCN1C(=O)/C(=C2/C=Cc3cc(C)ccc3N2CC)N(C)C1=S	-3.3%	-8.9%
72	Cc1ccc(C(=O)N(Cc2ccco2)c2ccccn2)cc1	-11.6%	-2.3%

(cont.)
no.	SMILES	Vaccinia mCherry	VACV Venus inh
73	CC1CN(S(=O)(=O)c2ccc(C(=O)Nc3nncs3)cc2)CC(C)O1 (stereo not drawn)	i	-5.0%
74	Cc1ccccc1-n1c(O)c(/C=N/N2CCOCC2)c(=O)[nH]c1=S	i	-5.4%
75	Cc1cc(/C=N/n2cnnc2)c(C)n1-c1cccc(C(=O)O)c1	i	-1.3%
76	NC(CCc1ccccc1)c1csc(NC(=O)Nc2ccccc2Oc2ccccc2)n1 (stereo not drawn)	?	11.2µM*
77	NCCCN(Cc1ccccc1)c1ccc(Br)cn1	i	-6.4%
78	COc1cccc(CSC(C(=O)O)c2ccccc2)c1 (stereo not drawn)	i	-10.0%
79	COc1ccc(NC(=O)Oc2cc(C)ccc2C(C)C)cc1	?	-17.6%
80	C(=C\c1ccccn1)/c1ccccc1	?	?
81	CC(=O)Oc1[nH]c(=O)c2cccc3c2c1CCC3	-5.1%	-18.3%
82	O=C(Cn1[nH]c(=O)c2ccccc2c1=O)NC1CCCCCC1	·	-24.1%
83	O=[N+]([O-])c1ccc2[nH]c3nc4ccccc4nc3c2c1	-14.0%	-11.7%
84	O=C(CSc1nncs1)Nc1ccc2c(c1)OCCO2	·	-19.2%

New compounds follow
no.	SMILES	Vaccinia mCherry	VACV Venus inh
85	Cc1cccc2cc(COC(=O)c3ccccn3)c(=O)[nH]c12	·	5.2%
86	O=C(Nc1ccccc1)NC1CCCCC1	·	-24.4%
87	COC(=O)C1CCCN1C(=O)COc1ccc(Cl)cc1Br (stereo not drawn)	-15.7%	-1.7%
88	COc1ccc(NC(=O)c2cccc(N3CCCS3(=O)=O)c2)c(OC)c1	-1.3%	17.3%
89	COc1ccc(NC(=O)CCSc2ccc(C)cc2)cc1	-13.5%	-12.8%
90	COc1ccc(F)cc1C(=O)C1CCCN(Cc2cccn2-c2ccccn2)C1 (stereo not drawn)	?	-15.2%
91	Cc1ccc(S(=O)(=O)Nc2cccc3cccnc23)cc1	?	?
92	Clc1ccccc1CNCc1ccc2c(c1)OCO2	i	-3.8%
93	COc1ccccc1-c1cnc(C(O)c2cc(Cl)cc(Cl)c2)[nH]1 (stereo not drawn)	i	-14.7%
94	COc1ccc(S(=O)(=O)N(CC(=O)NCCC(C)C)c2ccccc2)cc1OC	-13.1%	-9.0%
95	CCCCC(=O)Nc1nnc(SCC(=O)Nc2ccc(OC)cc2)s1	i	-5.4%
96	CCN(C(=O)c1ccc(S(C)(=O)=O)cc1)C12CC3CC(CC(C3)C1)C2	i	-11.0%

(listing goes on)
no.	SMILES	Vaccinia mCherry	VACV Venus inh
97	Cc1c(CCN)ccc2c1[nH]c1ccccc12	?	-20.2%
98	O=C(/C=C\c1ccc(-c2cccc([N+](=O)[O-])c2)o1)N1CCOCC1	i	-6.6%
99	COc1cccc(C2CC(c3cccs3)=NN2C(=O)CCC(=O)O)c1OC (stereo not drawn)	i	-5.3%
100	Nc1ccn(C2OC(CO)C(O)C2F)c(=O)n1 (stereo not drawn)	?	?
101	O=c1[nH]c2ccccc2c(=O)n1-c1cccc(Cl)c1	4.7%	9.0%
102	O=C(Nc1cccnc1)c1cccc(F)c1	-20.2%	-7.1%
103	Cc1ccc(/C=C/C(=O)NCc2cccs2)o1	i	-9.4%
104	Cc1cccc(C)c1NC(=O)CSc1ncnc2nc[nH]c12	-12.0%	-4.8%
105	Cc1ccc(NC(=O)CN(C)S(=O)(=O)c2cccc3nsnc23)c(C)c1	-16.1%	-14.1%
106	COc1ccc(NC(=O)c2cc(Cl)ccc2Cl)c([N+](=O)[O-])c1	-9.7%	-5.7%
107	COc1ccc(C2C(C(=O)/C=C/c3ccco3)=C(O)C(=O)N2CCN2CCOCC2)cc1 (stereo not drawn)	-0.6%	2.8%
108	O=[N+]([O-])c1cc(C(F)(F)F)ccc1Sc1nccn1Cc1ccccc1	-22.5%	-15.6%
109	CC1=CC(C)(C)n2c(O)c(N=N)c3c(C)ccc1c32	-2.5%	-19.2%
110	CC(=O)Nc1ccc(OCC(O)Cn2cncn2)cc1 (stereo not drawn)	-13.8%	-16.9%
111	O=C(Cc1cn2ccsc2n1)NCc1ccccc1	i	-8.0%

Compound activity (PubChem BioAssay)
